# Arbovirus anti = blocks arbovirus infection; inhibition, % at 10 µM; 200,000 compounds, 0.37% hits; arbovirus infection cell-based antiviral screen;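 active = inhibition from about 30%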;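 also: bluetongue infection of BSR cells; cell survival read as ATP light after 72 h; 0% = infected wells without compound and 100% = uninfected wells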
# Mtb betalactam = beta-lactam sensitization of Mtb H37Rv; M. tuberculosis H37Rv growth with meropenem, percent inhibition; hits of this screen are not shown here; inhibition, % at 25 µM; 330,000 compounds, 0.27% hits;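 active = about 74% or more and at least 40 points above the plate without the antibiotic, then above 30% in a dose series; inconclusive = first-round hits that could not be retested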;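 also: growth measured after seven days incubation then overnight dye step; 0% = bacteria only wells and 100% = bacteria with antibiotic; twin plates without the antibiotic show which effects depend on it; some results filed as inactive read as strong as hits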
# YopH PTP inh = inhibitors of Yersinia enterocolitica YopH tyrosine phosphatase; fluorescence Ex485/Em525; inhibition, %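 (about 10 µM by stock and volumes)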; 140,000 compounds, 0.16% hits;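 active = inhibition of 50% or more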;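 also: controls were vehicle for no effect and minimum signal wells for full effect; inactives centre near -20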
# RecA intein inh = inhibitors of M. tuberculosis RecA intein splicing; inhibition, %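 (about 9 µM by stock and volumes)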; cell-free RecA intein splicing, fluorescence; AID 2221; 290,000 compounds, 0.75% hits; P9WHJ3; in the data active = inhibition above about 30%; inconclusive = no clear call, values can overlap the other calls;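 also: 0% = vehicle wells and 100% = reference inhibitor control wells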
# Target sequence (P9WHJ3 whole entry, looked up): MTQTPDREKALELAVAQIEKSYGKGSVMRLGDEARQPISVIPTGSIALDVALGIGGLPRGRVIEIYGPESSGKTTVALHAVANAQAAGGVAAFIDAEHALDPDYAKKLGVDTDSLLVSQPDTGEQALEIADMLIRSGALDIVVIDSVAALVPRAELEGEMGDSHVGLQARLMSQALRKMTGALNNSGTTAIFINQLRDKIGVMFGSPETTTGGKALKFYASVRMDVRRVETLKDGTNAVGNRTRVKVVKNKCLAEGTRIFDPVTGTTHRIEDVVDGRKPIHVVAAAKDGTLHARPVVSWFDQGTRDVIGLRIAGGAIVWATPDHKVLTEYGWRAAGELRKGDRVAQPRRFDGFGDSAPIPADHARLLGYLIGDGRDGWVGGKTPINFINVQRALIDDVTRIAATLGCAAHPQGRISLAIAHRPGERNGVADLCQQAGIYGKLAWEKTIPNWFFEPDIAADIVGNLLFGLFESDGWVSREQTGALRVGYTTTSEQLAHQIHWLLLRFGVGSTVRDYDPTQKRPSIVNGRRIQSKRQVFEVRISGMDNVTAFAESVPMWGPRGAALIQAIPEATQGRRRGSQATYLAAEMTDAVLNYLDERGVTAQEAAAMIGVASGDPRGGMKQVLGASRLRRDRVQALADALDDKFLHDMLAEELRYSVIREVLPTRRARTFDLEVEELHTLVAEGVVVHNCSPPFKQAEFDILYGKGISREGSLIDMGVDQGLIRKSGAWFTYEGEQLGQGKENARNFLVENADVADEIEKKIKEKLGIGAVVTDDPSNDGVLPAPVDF
# Mtb growth = M. tuberculosis H37Rv growth inhibitors, H37Rv strain (AID 1626) | M. tuberculosis H37Rv growth inhibition; higher % means a stronger effect | one-dose inhibition, % at 10 µM; IC50 in µM for titrated hits | 220,000 compounds, 0.95% hits;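 active = confirmed in a dose series; inconclusive = inhibition above 80% but not taken into the dose series; inactive = below 80% or under 30% at every dose of the series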;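 also: bacteria incubated seven days before Alamar blue readout; 0% = bacteria only wells and 100% = bacteria with antibiotic wells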
# Numbers without * were called inactive; ? = inconclusive; . = not tested or not shown. Some of the compounds tested; the hit share may differ from the screen's.
SMILES,Arbovirus anti,Mtb betalactam,YopH PTP inh,RecA intein inh,Mtb growth
Cc1nn(C)cc1CNC(=O)C1C2CCC(C2)C1C(=O)O (centres undefined),11,-2,.,-2.4,6%
COc1ccccc1NC(=O)Oc1ccc(C(C)=O)cc1,-3,-4,-20,-0.2,-1%
CCCC[C@@H]1CNCCN1CCCc1cc(OC)c(OC)c(OC)c1,.,-6,.,-1.2,.
O=C(Cc1ccccc1)NCc1n[nH]c(=S)n1-c1ccccc1,-5,-5,.,0.3,-6%
CC(C(=O)Nc1ccc(F)cc1Cl)N(C)CCOc1ccccc1 (centres undefined),.,-6,.,7.5,.
CCOCCCn1c(=NC(=O)c2ccc(OC)c(OC)c2)c(C#N)cc2c(=O)n3cccc(C)c3nc21,-5,-3,-16,-17,.
COC(=O)c1cnn(-c2ccc(C)c(C)c2)c1-n1cccc1,-1,0,-3,6.7,1%
CC(C)CCC(C(=O)O)C(C)CC(=O)NC1CCCCC1 (centres undefined),3,-3,4,-1.9,4%
Cn1c(=O)[nH]c(=O)c2c1nc(SCc1ccccc1Cl)n2CC(N)=O,.,4,.,-0.2,.
NC(=O)c1cc2cc(Cc3ccccc3Cl)ccc2oc1=O,3,16,.,-0.1,-2%
Cc1ccsc1C(=O)C1CCCN(Cc2ccc(O)cc2)C1 (centres undefined),-4,-4,.,0.4,-5%
Cc1cc(C)n(CCn2nc(C)cc2C)n1,3,-11,-22,1.8,-2%
Cc1ccc(OCC(=O)NNC(=O)c2ccccc2OCc2c(C)noc2C)cc1,.,-3,.,4.6,.
COc1cccc(N2C(=O)C3C(C2=O)C3(c2ccccc2)c2ccccc2)c1 (centres undefined),.,-2,.,1.5,0%
N#Cc1sc2nc(C3CC3)cc(-c3ccc(Cl)cc3)c2c1N,9,0,-6,-9.9,6%
O=C(NNC1CC(c2ccccc2)=NN1C(=O)c1ccccc1)c1ccccc1 (centres undefined),-1,-9,.,3.9,5%
CCc1nn(CC(=O)NCCCN2CCOCC2)c(=O)c2cc3cc(F)ccc3n12,.,-7,.,-2.0,.
O=c1cc2ncc(-c3[nH]ncc3[N+](=O)[O-])cn2[nH]1,.,-7,.,1.6,-1%
CCN(CC)CCCN(C(=O)c1ccccc1F)c1nc(-c2ccc(OC)cc2)cs1,.,27,.,2.3,.
CCN(Cc1ccccc1)C(=O)COC(=O)c1cnc(C)cn1,6,-7,.,6.1,0%
COC(=O)c1ccc(CSc2nnc(Nc3ccc(OC)cc3)s2)o1,3,0,-18,-4.7,-2%
C[C@@H]1CCC2[C@](C)(CO)[C@@H](O)CC[C@]2(C)[C@@]12CC[C@@](CO)(CC(=O)O)O2 (some centres undefined),.,-7,.,-4.0,.
Cc1nnc2sc(SCC(=O)N3CCC(C)CC3)nn2c1=O,.,2,.,1.3,.
O=C(CN(Cc1ccco1)C(=O)Cn1nnc(-c2cccs2)n1)NCc1ccccc1,3,-3,-20,1.5,6%
CCOc1ncccc1C(=O)Nc1ccc(F)c(Cl)c1,-2,10,.,1.7,-3%
O=C(NC1CCCCCC1)C1c2ccccc2C(=O)N1Cc1ccco1 (centres undefined),3,3,-9,0.3,-9%
COc1ccc(CNC(=O)C2CCN(C(=O)c3cccc(Cl)c3)CC2)cc1,.,?,.,2.0,.
CCc1nc2cc3sc(CC)nc3cc2s1,0,-1,.,-5.1,15%
CC(=O)N/C(=C/c1ccc(Cl)cc1)C(=O)NCCc1c[nH]c2ccccc12,-37,-4,-32,-0.3,.
Cc1nc2sccn2c1-c1csc(NCc2ccccc2)n1,0,0,-40,.,5%
c1cnc(N2CCNCC2)nc1,3,-1,.,1.6,-1%
CC1(C)Cc2cccc(C(=O)NC3CCN(Cc4ccccc4)CC3)c2O1,.,-4,.,.,-4%
Cc1ccc2c(c1)=NC(=O)/C(=C/c1c(O)[nH]c(=O)[nH]c1=O)C=2,.,-7,.,-24,-13%
C#CCOCCOCCOCCNc1nc(N2CCOCC2)nc(N2CCN(C(=O)[C@H]([C@@H](C)CC)n3cc(CCCCN)nn3)CC2)n1,-5,-9,-22,0.2,-5%
O=[N+]([O-])c1ccc(-n2cccc2/C=N/Nc2nc(N3CCCCC3)nc(N3CCCCC3)n2)cc1,-2,5,.,-3.2,4%
CNCC/C=C1/c2ccccc2CSc2ccccc21,-33,-8,-12,.,7%
CCCn1c(C(C)Nc2nc(-c3ccc(OC)cc3)cs2)nc2ccccc21 (centres undefined),.,-2,.,12,.
CN(C)CCCNC(=S)Nc1ccc(Br)cc1,.,-1,.,1.4,-2%
O=C(O)CCCC(=O)Nc1cccc(-c2nc3ccccc3[nH]2)c1,8,-19,-59,-1.6,3%
CC(C)(C)NC(=O)c1ccc(COCC(F)(F)F)o1,-3,1,-16,-0.7,0%
CC(C)c1ccc(C2=NN(c3ccccc3)C(=O)CC2)cc1,-13,4,4,4.6,7%
O=C(Cn1cc(C(F)(F)F)ccc1=O)N/N=C/c1ccccc1,3,-15,.,-3.9,4%
NNC(=O)CSc1ncc(-c2ccccc2)[nH]1,3,-2,.,0.0,4%
CCOC(=O)C(CCSC)Nc1nc(Cl)nc(Nc2ccc(Cl)cc2)n1 (centres undefined),.,1,.,15,-9%
Cc1cc(C)c2nc(N3CCC(C(=O)NCc4cccnc4)CC3)sc2c1,3,4,.,2.4,3%
Cc1cc(N2CCCCC2)nc(SCC(=O)c2ccccc2)n1,3,-3,-34,1.8,1%
Cc1ccc(S(=O)(=O)N(CC(=O)N/N=C/c2ccccc2C(=O)O)c2cc(Cl)cc(Cl)c2)cc1,-10,-8,.,-3.7,-2%
CN(C)S(=O)(=O)c1cccc(NC(=O)COC(=O)CCC(=O)c2cccs2)c1,11,6,.,-2.0,-1%
Cc1nonc1OCCNc1ccc([N+](=O)[O-])cc1[N+](=O)[O-],0,0,-10,.,18%
Cc1ccc(Cl)cc1N1CCN(S(=O)(=O)c2c(C(=O)N3CCOCC3)c(C)n(C)c2C)CC1,.,6,.,-0.5,.
# Remaining list, next part
SMILES,Arbovirus anti,Mtb betalactam,YopH PTP inh,RecA intein inh,Mtb growth
CCCN1CC(O)=C(C#N)C1=O,2,-5,.,-1.3,-5%
COc1cccc(CN(C)CC(=O)Nc2cccc3ccccc23)c1,9,18,.,5.2,7%
Cc1ccsc1C(=O)C1CCCN(Cc2cc(C(C)C)n[nH]2)C1 (centres undefined),-1,-4,.,2.4,4%
Cc1c(-c2cccc(Cl)c2)nc2ccccc2c1C(=O)OCC(=O)Nc1ccc2c(c1)OCO2,-22,95,-30,17,11µM*
COc1ccc(CNC(=O)CCC(=O)N2C[C@H]3C[C@H](C2)c2cccc(=O)n2C3)cc1,.,-7,.,-0.2,.
O=C(CN1CCOCC1)NNC(=O)c1ccc([N+](=O)[O-])cc1,.,0,.,4.1,.
Cc1c(Cl)ccc2c(C(=O)O)cc(-c3ccccc3)nc12,.,1,.,2.8,-3%
O=[N+]([O-])c1cc(C(F)(F)F)ccc1N1CCN(S(=O)(=O)c2ccc3ccccc3c2)CC1,13,2,-44,6.0,2%
Cc1ccc(C)c2sc(NC(=O)c3nc4ccccc4s3)nc12,-1,1,-22,-2.3,.
CCOC(=O)C1C(=O)CC(C)(O)C(C(=O)OCC)C1c1ccccc1OC (centres undefined),7,-7,-19,1.1,4%
COC(=O)c1ccc(N2NC(=O)/C(=C/c3cc(OC)c(OC)c(OC)c3)C2=O)cc1,.,75,.,0.5,.
O=S(=O)(Nc1ccc(Cl)cn1)c1ccc2c(c1)OCCO2,.,-7,.,-0.9,.
COc1ccc2c(Cl)c(C(=O)NCC3CCCO3)sc2c1Cl (centres undefined),4,2,-31,0.6,7%
CCC(C)(C)NC(=O)CN(C(=O)CCC(=O)Nc1nccs1)c1cccc(C)c1C,.,1,.,-1.2,.
O=C1C(=O)N(CCN2CCOCC2)C(c2ccccn2)/C1=C(/O)c1ccc(Cl)cc1 (centres undefined),-3,1,-29,-6.2,0%
COc1ccc(NC2CCCN(C(=O)C3(C)CCCCC3)C2)cc1OC (centres undefined),.,7,.,0.1,.
CCc1ccc(NC(=O)Nc2cc(C(=O)NCC3CCCO3)ccc2N2CC3CC(C2)c2cccc(=O)n2C3)cc1 (centres undefined),.,1,.,1.7,.
CN1CCN(c2ccc([N+](=O)[O-])c(N/N=C3\CN4CCC3CC4)c2)CC1,-7,-9,-30,4.1,-4%
COC(=O)c1ccccc1NC(=O)COC(=O)[C@H](C)NC(N)=O,.,3,.,-1.8,10%
NC(=O)CN1C(=O)NC2(CCCc3sccc32)C1=O (centres undefined),.,-6,.,0.1,.
Cc1c(C(=O)N2CCN(c3ccccn3)CC2)oc2c1C(=O)CC(C)(C)C2,.,?,.,-0.3,.
CCNS(=O)(=O)c1ccc(CCC(=O)Nc2ccc3c(c2)OCO3)cc1,.,0,.,-2.3,.
Cc1cc(-c2n[nH]c(=S)n2/N=C/c2cccc([N+](=O)[O-])c2)n[nH]1,3,-9,-16,1.0,-9%
CN(C)c1ccc(CC(=O)c2nc3ccccc3s2)cc1,-13,-9,-6,-9.5,-6%
Cc1onc(-c2c(Cl)cccc2Cl)c1C(=O)N1CCN(c2ccc(F)cc2)CC1,.,0,.,3.9,.
O=C(NCCN1CCOCC1)c1cc(-c2ccccc2)on1,-9,5,-31,0.0,-7%
COc1ccc(/C=C/C(=O)Nc2ccccc2)cc1OC,15,-7,.,3.3,8%
COc1ccc(-c2nnc(NC(=O)Cc3ccccc3)o2)cc1,.,73,.,4.1,.
CCOC(=O)N1CCN(C(=O)c2ccccc2NC(=O)c2ccc(F)cc2)CC1,6,1,-8,-1.3,23%
COc1cccc(N(CC(=O)Nc2ccccc2C(=O)N2CCCC2)S(C)(=O)=O)c1,.,-5,.,-0.9,.
CCSc1nc(N2CCOCC2)c2c(c1C#N)CCCC2,-5,71,-42,-11,10%
CCN1CCN(C(=S)NC(C)c2ccccc2)CC1 (centres undefined),-6,5,-15,-1.3,53%
O=C(Nc1ccc(Oc2ccccc2)cc1)c1ccc(Cn2c(=O)[nH]c3ccsc3c2=O)cc1,-15,-3,-27,-11,.
COc1cc2c(=O)n(CCC(=O)NCC3CCCO3)c(=O)n(CC(=O)Nc3ccccc3C)c2cc1OC (centres undefined),.,3,.,4.6,.
Clc1ccc2scc(CN3CCCCC3)c2c1,1,-2,-27,6.7,4%
Cc1ccc(C)c(NC(=O)C2CC3c4ccccc4C2c2ccccc23)c1 (centres undefined),-5,8,-32,-5.4,17%
Cc1ccc(/C=C2\Sc3ccccc3C2=O)s1,0,2,-7,29,-5%
Cc1cc(C)c(C(=O)O)c(CC(C)(C)C(=O)O)c1,.,19,.,-2.6,19%
COCCn1c(SCC(=O)Nc2ccc(F)cc2)nc2c([nH]c3ccccc32)c1=O,.,?,.,1.0,.
CCOc1c(OC)ccc2c3c(c(=O)oc12)CCCC3,-2,.,-19,0.4,13%
Cc1c(-c2cccc(Cl)c2)nc2ccccc2c1C(=O)NC1CC1,.,-5,.,1.4,.
CC(=O)N/N=C(\C)CC(=O)Nc1cccc(C(F)(F)F)c1,4,-2,.,25,5%
CCc1ccc(-c2cc(C(=O)NCc3ccco3)c3ccccc3n2)s1,-2,1,-51,-32,.
CCc1ccc(C(=O)NNc2ccc(F)cc2)cc1,.,95,.,1.8,74%
N#Cc1c(-c2cccc([N+](=O)[O-])c2)nc2n(c1=O)CCS2,.,-6,.,-3.0,.
CCS(=O)(=O)c1ncc(Cl)c(C(=O)Nc2ccc(C)cc2)n1,.,100,.,65*,.
